# High-throughput results from PubChem BioAssay.
# TRPML1 ag – human mucolipin-1 channel agonism; Q9GZU1; TRPML1-expressing cells, Ca2+ dye fluorescence, FDSS; host cell line not named in the record; reference of the full effect not given here; activation, % (test concentration not listed); 410,000 compounds, 0.12% hits; AID 624414; in the data active = activation above about 50%; inconclusive = about 30% to 50%; inactive = below about 30%; note: 0% is about no effect; the text of the record puts the active cut at 80%
#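 In this qHTS format, compounds were pin-transferred onto Ca8-dye-loaded TRPML1-DL cells induced with Tet overnight, and intracellular Ca2+ fluorescence was recorded kinetically for 110 s after a 10 s baseline. A subsequent 4uM final 54-4 (EC80) addition followed by a second 110 s read served as the antagonist phase.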
# CtBP-E1A blk – inhibitors of CtBP/E1A interaction; AlphaScreen GST-E1A/His-CtBP binding, 1536-well; active compounds read low; control for the full effect not named in the record; activity change, % (test concentration not listed); 340,000 compounds, 0.49% hits; AID 651724; in the data active means activity change below about -65%; inconclusive means about -30% to -65%; inactive means above about -30%; note: % is set by controls: 0 for no effect and ±100 for the full control effect
#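 In 5 uL wells, 23 nL compound meets equimolar GST-E1A and His-CtBP (5X stock 125 nM each) for 2 h, 37 °C. Beads (5X, 50 ug/mL) then 1 h, 37 °C, dark.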
# Six1-Eya2 inh – Six1/Eya2 interaction inhibition. Q15475+O00167. AlphaScreen GST-Six1/His-Eya2 binding, biochemical; active compounds read low; control for the full effect not named in the record. 360,000 compounds, 0.56% hits. activity change, % (concentration not given with the values). AID 651725; in the data active = activity change below about -65%; inconclusive = about -30% to -65%; inactive = above about -30%; note: % is set by controls: 0 for no effect and ±100 for the full control effect
# Target sequence (O00167 whole entry, looked up): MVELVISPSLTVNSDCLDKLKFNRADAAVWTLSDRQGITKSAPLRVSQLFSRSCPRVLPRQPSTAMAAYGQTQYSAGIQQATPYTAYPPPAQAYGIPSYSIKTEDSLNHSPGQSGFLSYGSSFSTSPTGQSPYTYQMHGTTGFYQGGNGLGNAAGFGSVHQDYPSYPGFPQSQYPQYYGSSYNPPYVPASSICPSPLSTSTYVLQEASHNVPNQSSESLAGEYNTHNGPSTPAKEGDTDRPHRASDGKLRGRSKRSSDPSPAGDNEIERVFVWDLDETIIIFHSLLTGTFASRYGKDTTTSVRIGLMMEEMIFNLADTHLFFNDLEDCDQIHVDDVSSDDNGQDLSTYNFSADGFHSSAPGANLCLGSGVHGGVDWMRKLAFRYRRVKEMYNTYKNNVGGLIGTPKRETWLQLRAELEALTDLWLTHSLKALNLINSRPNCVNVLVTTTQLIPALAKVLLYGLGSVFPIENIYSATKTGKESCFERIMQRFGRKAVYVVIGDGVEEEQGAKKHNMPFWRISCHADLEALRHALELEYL
# Target sequence (Q15475 whole entry, looked up): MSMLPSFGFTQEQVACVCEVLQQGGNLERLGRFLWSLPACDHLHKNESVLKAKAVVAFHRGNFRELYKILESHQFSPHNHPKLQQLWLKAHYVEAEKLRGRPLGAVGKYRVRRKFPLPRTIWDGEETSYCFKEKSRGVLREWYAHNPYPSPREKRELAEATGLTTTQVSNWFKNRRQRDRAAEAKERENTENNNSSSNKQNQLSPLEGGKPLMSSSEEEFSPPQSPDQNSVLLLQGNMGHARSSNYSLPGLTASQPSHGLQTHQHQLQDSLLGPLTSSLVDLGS
#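 GST-Six1 + His-Eya2 (5X stock: 250/500 nM); Tris pH 8.0, 300 mM NaCl, 0.05% BSA, 0.02% Tween 20; GSH donor/Ni acceptor beads; 1 h 37 °C dark; AlphaScreen readout.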
# D2 agonist – activates the human D2 dopamine receptor | DiscoveRx PathHunter D2 beta-arrestin, luminescence, 90 min; 100% = 57 uM dopamine signal | activation, % (test concentration not listed) | 360,000 compounds, 0.084% hits | AID 624465; in the data active = activation above about 40%; inconclusive = about 15% to 40%; inactive = below about 15%; note: compound concentration not given in the record; the text of the record calls up to 30% inactive
#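 DiscoveRx PathHunter D2 beta-arrestin cells (2,100/well) attached overnight, then compound-stimulated 90 min at 37 C in HBSS/10 mM HEPES/0.1% Tween-20 buffer; beta-galactosidase complementation read by luminescence after 1 h at ambient temperature. Dopamine 57 uM final (EC100) as control.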
# PINK1 modulator – changes PINK1 expression; Potency, µM (doses to about 76.6 µM), inactives show top-dose activation (PINK1 increase), actives largely listed as activators; PINK1 immunofluorescence, high-content cytometry, 24 h; AID 624263; 410,000 compounds, 0.2% hits; active = well fitted activation curve with a large enough effect; inconclusive = small, poorly fitted or top-dose-only effect; inactive = flat fitted curve, though single readings scatter; cell line not stated here;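 note: potency is the fitted concentration of half-maximal effect; % of control where 0% means no effect; nearly all actives have a fitted effect of over 65% in size; a mitochondrial uncoupler was the plate control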
#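 PINK1 protein level read as immunofluorescence by microplate cytometer in a fixed, stained stable cell line after 24 h exposure to five compound concentrations, with CCCP as control.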
# D2 PAM – potentiates the human D2 dopamine receptor allosterically. 360,000 compounds, 0.23% hits. potentiation, % (concentration not given with the values). P14416. AID 624464. DiscoveRx D2 beta-arrestin cells, luminescence, 90 min; 100% = 57 uM dopamine signal; active = potentiation of 50% or more; inconclusive = 30% to 50%; inactive = 30% or less;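 note: tested on top of an EC20 dose of dopamine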
#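 D2 cells co-treated with compound plus 50 nM dopamine (EC20) for 90 min at 37 deg C to detect potentiation. Beta-arrestin recruitment was read as enzyme-fragment luminescence after 1 h at ambient temperature. Full response was set by 57 uM dopamine.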
# Starred values were filed as active, the others as inactive; u = inconclusive; x = not tested or not shown; [ ] = another dose, or the depositor's remark.
Compound	CtBP-E1A blk	D2 PAM	PINK1 modulator	Six1-Eya2 inh	D2 agonist	TRPML1 ag
CN(CC(=O)Nc1ccc(Cl)cc1F)C1CCS(=O)(=O)C1 (stereo not drawn)	14	-2	0.0%	12	-4.7	-0.4
Cc1cc(C)cc(OCC(=O)OCC(=O)NC2CCCCCC2)c1	6	-2	2.4%	11	-1.5	1.0
CCOc1ccccc1-c1noc(CCC(=O)NC2CCCCC2)n1	2	-2	3.4%	-7	-2.2	1.5
C#CCOCCOCCOCCNc1nc(N2CCN(C(=O)[C@H](CCC(=O)O)n3cc(C(N)CC(C)C)nn3)CC2)nc(N2CCN(C(=O)[C@H](CCC(=O)O)n3cc(C(N)[C@H](C)CC)nn3)CC2)n1 (stereo partly drawn)	x	-3	1.0%	2	-5.4	0.1
c1ccc2nc(SCc3cn4ccccc4n3)cnc2c1	-14	-16	0.1%	-3	2.2	0.8
Cc1cc(=O)[nH]c2c(N=Nc3ccc(O)cc3)c(N)nn12	x	0	2.5%	-77*	3.1	1.5
CC(C)(C)OC(=O)C1C(=O)CC(C)(O)C(C(=O)OC(C)(C)C)C1c1ccco1 (stereo not drawn)	0	2	-0.5%	18	-3.2	3.4
Cc1cc(NC(=O)CSCc2ccccc2C)no1	5	-7	-0.6%	-5	-3.3	0.2
CC(C)(C)S(=O)(=O)c1cnc2c(S(=O)(=O)c3ccccc3)cnn2c1N	-1	7	0.5%	1	14	-0.6
CN(C)S(=O)(=O)c1ccc(Cl)c(NC(=O)COC(=O)/C=C/c2ccco2)c1	7	1	3.2%	-6	-1.4	2.3
CN(C)CCNc1ncnc2oc(-c3ccccc3)c(-c3ccccc3)c12	-25	-16	-2.4%	-11	-8.3	2.1
CCCNc1nc(C)cc(-c2cc(C(=O)NCc3ccccc3)on2)n1	4	-3	3.7%	5	1.5	0.1
Cc1ccc(SCc2[nH]nc3c2C(c2ccco2)C(C#N)=C(N)O3)cc1 (stereo not drawn)	10	9	x	-2	0.8	8.6
CCOC(=O)C1CCN(C(c2cc3c(C)ccc(C)c3[nH]c2=O)c2nnnn2C2CCCCC2)CC1 (stereo not drawn)	-2	-6	11%[38.3 µM]	0	-3.2	1.9
Cc1ccc(-c2nnc(Nc3ccc(CC(N)=O)cc3)c3ccccc23)cc1S(=O)(=O)NCCO	-16	2	-1.2%	-13	2.4	0.1
COc1ccc(Br)cc1/C=N/NC(=O)C(c1ccncc1)N1CCOCC1 (stereo not drawn)	8	-9	1.1%	4	-0.7	-0.5
O=C(CCN1CCN(c2ccc([N+](=O)[O-])cc2)CC1)c1ccc(Cl)cc1	1	-1	3.5%	5	2.2	3.1
Cc1nc(SCC(C)C)[nH]c(=O)c1Cc1ccccc1	0	-20	1.9%	24	-5.8	0.9
OC[C@H]1O[C@@H](c2nc(-c3ccc(CN4CCOCC4)cc3)no2)[C@H](O)[C@@H](O)[C@H]1O	1	-11	-0.4%	0	-7.9	-0.1
C/C(=N/NC(=O)c1ccc(Br)o1)c1ccc(C)o1	-3	-22	-0.8%	u	-6.3	2.1
COCCNc1nc(-n2nc(C)cc2C)nc2sc3c(c12)CCCC3	-3	-14	-4.4%	-2	-2.5	1.1
Nc1nc(-c2ccc([N+](=O)[O-])cc2)cc(=O)[nH]1	-1	5	-1.0%	-3	4.7	0.0
CCC(C)[C@H](NC(=O)Nc1cccc(OC)c1)C(=O)OC (stereo partly drawn)	7	-14	14%[38.3 µM]	6	-3.8	0.9
O=c1[nH]c(CSc2nnnn2-c2ccc(Cl)cc2)nc2ccccc12	-6	4	2.5%	-7	5.8	1.8
Cn1c(=O)c([N+](=O)[O-])c(Cl)c2ccccc21	1	-45	-0.5%	-15	-7.7	5.5
CC1=NN(c2ccc(C(=O)O)cc2)C(=O)/C1=C\c1ccc(OC(=O)c2cccs2)cc1	x	-5	0.5%	u	5.2	-0.7
O=Cc1ccc(OCC(=O)Nc2ccccc2-c2ccccc2)cc1	15	-2	-3.6%	-1	1.5	-0.1
CN(C)c1ccc(P(=O)(OCc2ccccc2)C(O)c2ccccc2)cc1 (stereo not drawn)	-3	-7	-0.9%	-4	-2.0	-0.3
O=C(Nc1cccc(O)c1)C1CCCN1C(=O)OCc1ccccc1 (stereo not drawn)	0	-2	-3.9%	-3	-5.1	0.5
COc1cccc(NC(=O)N2CCN(c3nc(-c4cccc(OC)c4)cs3)CC2)c1	x	-20	2.9%	-24	-2.4	2.4

# Reprinted from the part before: 2 compounds, then new ones.
Compound	CtBP-E1A blk	D2 PAM	PINK1 modulator	Six1-Eya2 inh	D2 agonist	TRPML1 ag
O=C(Nc1cccc(O)c1)C1CCCN1C(=O)OCc1ccccc1 (stereo not drawn)	0	-2	-3.9%	-3	-5.1	0.5
COc1cccc(NC(=O)N2CCN(c3nc(-c4cccc(OC)c4)cs3)CC2)c1	x	-20	2.9%	-24	-2.4	2.4
CNC(=S)N/N=C(\C)c1ccc2c(c1)OCO2	x	-10	-2.3%	-8	-4.6	2.6
O=[N+]([O-])c1ccc(S(=O)(=O)Nc2nc3ccccc3nc2Nc2ccccc2)cc1	x	-7	35µM*	-8	0.8	52*
CNc1c(C(=O)O)ccc2c1C(=O)c1ccccc1C2=O	0	-12	-2.9%	-15	-9.0	0.7
COc1ccc(S(=O)(=O)N2CCCCC2)cc1NC(=O)CSc1nccn1C	-7	-7	1.0%	-2	1.0	-0.5
Cc1ccc(S(=O)(=O)N2CCC(C(=O)N3CCc4ccccc43)CC2)cc1C	10	-14	4.9%	-17	-1.5	0.9
CCC/C(C(=O)NCCO)=C1/c2ccccc2C(=O)N1c1ccccc1	8	-3	0.5%	1	-8.5	0.2
Cc1ccnc(N2C(=O)c3ccccc3C2O)c1 (stereo not drawn)	2	-5	1.3%	5	-6.6	0.2
CCOC(=O)c1c(NC(=O)CN2C(=O)C(=O)N(CC(C)C)C2=O)sc(C)c1CC	-7	8	2.8%	1	1.2	2.6
O=C(NCc1ccco1)c1ccc(S(=O)(=O)N2CCOCC2)cc1	2	-2	1.6%	-4	-2.3	-0.1
COc1ccc(C(=O)NC(=C(Cl)Cl)S(=O)(=O)c2ccc(C)cc2)cc1	-9	-6	-0.1%	-1	0.8	0.6
O=C(O)C(=O)Nc1ccc(NC(=O)C(c2ccccc2)c2ccccc2)cc1	4	19	1.9%	3	3.6	-0.5
COC(=O)N/N=C(\C)c1ccc(OC(F)F)cc1OC(F)F	6	-4	0.2%	6	-1.6	0.8
C=C(C)c1cccc(C(C)(C)NC(=O)NNC(=O)c2ccccc2O)c1	9	1	4.2%	6	9.1	-0.5
CCn1c(SCc2nc3cc(OC)c(OC)cc3c(=O)[nH]2)nc2ccccc21	-17	-6	1.4%	0	-3.6	0.1
O=C(Nc1ccc2c(c1)CCC2)c1cnn2c1NC(c1ccco1)CC2C(F)(F)F (stereo not drawn)	-2	-7	4.0%	-5	4.1	-0.1
Cc1ccc(C(=O)N2CCCC(c3ccccc3)=N2)cc1	-1	-7	-0.1%	-4	3.9	-0.1
CN(C)CCCN(Cc1cc2cc3c(cc2[nH]c1=O)OCO3)C(=S)Nc1cccc(Cl)c1	1	-13	-2.4%	-1	-4.0	1.0
COc1ccc(C(CNC(=O)c2ccc(-c3ccccc3Cl)o2)N2CCOCC2)cc1 (stereo not drawn)	-4	-40	11%	-17	-4.5	4.5
CCc1nnc(NC(=O)CCC(=O)N2CCN(Cc3ccccc3)CC2)s1	8	-6	-6.0%[38.3 µM]	4	1.2	0.5
O=C(COc1ncnc2scc(-c3ccc(F)cc3)c12)NCc1ccco1	1	-1	0.7%	4	-0.4	-0.1
Cn1c(N)c(C(=O)COC(=O)CSc2cccc3cccc(Cl)c23)c(=O)n(C)c1=O	-3	-1	-0.9%	-2	0.9	0.4
COc1ccc(NC(=O)c2ccc(Cl)c(S(=O)(=O)N3CCc4ccccc4C3)c2)cn1	-15	4	2.0%[38.3 µM]	-19	-1.2	-0.1
CCOC(=O)C1(CCOc2ccccc2)CCN(Cc2ccc3nonc3c2)CC1	-2	-18	3.3%	9	-0.3	2.2
O=C(COC(=O)c1cc([N+](=O)[O-])ccc1Cl)NC1CCCC1	4	-4	-1.8%	0	1.2	0.9
COC(=O)C(CC(=O)O)NCc1ccco1 (stereo not drawn)	-1	-3	1.3%	0	-0.2	0.1
COc1ccccc1C(c1nnnn1C(C)(C)C)N1CCN(C(=O)c2ccco2)CC1 (stereo not drawn)	-4	-18	-3.1%	14	0.5	1.0
Clc1ccc(Br)cc1-c1nc(-c2ccncc2)no1	6	-1	-3.5%	2	-2.9	3.0
O=S(=O)(Cc1ccccc1)N1CCC(c2nc(-c3cccs3)no2)CC1	2	-9	11%[38.3 µM]	1	-1.0	1.9
CSc1ccccc1OCc1cc(C(=O)N(C)Cc2ccc(C)o2)no1	-12	-12	1.7%	-14	-1.6	4.0
C/C(=N\NC(=O)CCc1c[nH]c2ccccc12)c1cccc([N+](=O)[O-])c1	-14	-3	0.8%	-13	3.4	0.9

# The results go on:
Compound	CtBP-E1A blk	D2 PAM	PINK1 modulator	Six1-Eya2 inh	D2 agonist	TRPML1 ag
COc1ccccc1C(=O)C1CCCN(C(=O)c2ccc3c(c2)OCCO3)C1 (stereo not drawn)	1	1	0.0%	-3	-8.4	-1.4
CCN1CCN(C(=O)c2cc(=O)c3cc(C)ccc3o2)CC1	1	-5	-0.9%	7	-3.2	0.4
COc1ccc(CN(C)CC(=O)Nc2ccccc2-c2ccccc2)c(OC)c1	-7	-6	3.9%	0	0.2	2.4
O=C1CCCc2nc(NCc3ccco3)ncc21	-2	-7	-1.2%	7	-1.3	0.7
CC(C)COC(=O)N(C)c1ccc(C(O)(C(F)(F)F)C(F)(F)F)cc1	1	-26	7.4%	0	-0.4	0.9
Cc1ccccc1CC(=O)N1CCCc2ccccc21	16	-1	0.0%	1	-3.6	-0.6
O=C(Cn1c(C(=O)N2CCN(C3CCCCC3)CC2)cc2sccc21)c1ccccc1	u	-20	-6.6%[38.3 µM]	-22	-5.9	1.3
CC1CCCCN1C(=O)C1CCN(c2nc(-c3ccccc3)nc3c2CCC3)CC1 (stereo not drawn)	8	-29	5.9%	-7	-1.3	1.0
CCCCCc1c(-c2ccc(Br)cc2)ncn1CCc1ccccc1OC	-2	x	1.9%	-18	x	1.5

# Sorted by value in Six1-Eya2 inh (descending): some entries from above.
structure	Six1-Eya2 inh
CC(C)COC(=O)N(C)c1ccc(C(O)(C(F)(F)F)C(F)(F)F)cc1	0
COc1ccccc1C(=O)C1CCCN(C(=O)c2ccc3c(c2)OCCO3)C1 (stereo not drawn)	-3
CC1CCCCN1C(=O)C1CCN(c2nc(-c3ccccc3)nc3c2CCC3)CC1 (stereo not drawn)	-7

# Rows are unselected; about 1.3% have a hit in one of these screens.
